Marburg entry inh: qHTS for inhibitors of binding or entry into cells for Marburg Virus. 1.8% of 300,000 active. Potency, µM (highest dose often 37.8 µM), for the others: top-dose activity change, negative = inhibition, hits mostly inhibitors. AID 540276, 2011. Marburg virus pseudotyped entry inhibition, cell reporter; control for the full effect not named in the record; about a third of the inactives were read at about 46 µM; active = well fitted inhibition curve with a large enough effect; inconclusive = small, poorly fitted or top-dose-only effect, or effect the other way; inactive = flat fitted curve, though single readings scatter; tested in HEK293 cells; about a fifth of its hits are not listed in these tables; also: % is scaled to controls: 0 for no effect and ±100 for the full control effect; luciferase read-out
NS1 inh: qHTS Assay for Inhibitors of Influenza NS1 Protein Function. S. cerevisiae slowed by influenza A NS1, growth recovery by OD600. AID 2326, 2010. 0.4% of 270,000 active. Potency, µM (titrated, usually from 46.1 µM), inactives show at the highest dose activity, positive = more growth; active means well fitted rising curve with a large enough effect; inconclusive means small, poorly fitted or top-dose-only effect; inactive means no such curve, though single readings can be large or run the other way; also: nearly all actives have a fitted effect of over 50% in size
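In this qHTS, NS1 from influenza A is expressed in budding yeast, where it slows growth. Cells are switched from glucose to 2% galactose medium (pH 6.0, -URA), treated with compound, and growth recovery is read at OD600.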
SARS PLpro yeast: qHTS of Yeast-based Assay for SARS-CoV PLP. S. cerevisiae expressing SARS-CoV PLpro, growth rescue; control for the full effect not named in the record. Potency, µM (titrated, usually from 32.9 µM), for inactives: top-dose activity, positive = growth rescue. 0.19% of 330,000 active; active means well fitted rising curve with a large enough effect; inconclusive means small, poorly fitted or top-dose-only effect; inactive means no such curve, though single readings can be large or run the other way; also: 0% is about no effect; nearly all actives have a fitted effect of over 55% in size; growth read by luminescence after 48 h
LASV entry inh: qHTS for Inhibitors of binding or entry into cells for Lassa Virus; Lassa virus pseudotype entry inhibition, cell reporter; control for the full effect not named in the record; Potency, µM (highest dose often 37.9 µM), for the others: at the top dose activity change, negative = inhibition, most hits filed as inhibitors; 1.2% of 300,000 active; AID 540256, 2011; active means well fitted inhibition curve with a large enough effect; inconclusive means small, poorly fitted or top-dose-only effect, or effect the other way; inactive means flat fitted curve, though single readings scatter; tested in HEK293 cells; also: % is scaled to controls: 0 for no effect and ±100 for the full control effect; nearly all actives have a fitted effect of over 50% in size; luciferase read-out
RE007 growth inh: qHTS Assay for Inhibitors of the HIV-1 protein Vpr; S. pombe RE007 Vpr strain, BacTiter-Glo ATP luminescence, 24 h; control for the full effect not named in the record; Potency, µM (highest dose often 92.2 µM), inactives show at the top dose activity change, negative = less growth; 0.21% of 360,000 active; active = well fitted falling curve with a large enough effect; inconclusive = small, poorly fitted or top-dose-only effect; inactive = no such curve, though single readings can be large or run the other way;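 also: % is scaled to controls: 0 for no effect and ±100 for the full control effect; nearly all actives have a fitted effect of over 50% in size; the assay follows cell death caused by Vpr and the record does not say whether a fall means rescue or toxicity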
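Fission yeast RE007 carrying one integrated HIV-1 vpr copy, seeded at OD 0.01 in PMG+AL medium with 23 nL pinned compound. Grown 24 h at 30 degrees; viability read by BacTiter-Glo luminescence after 5 min.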
Cruzain inh noDet: qHTS Assay for Promiscuous and Specific Inhibitors of Cruzain (without detergent). Potency, µM, for inactives: max response, negative = inhibition, most hits filed as inhibitors. purified cruzain, Z-FR-AMC fluorescence, no detergent. AID 1476, 2009. 2.3% of 200,000 active;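 also: plate controls were enzyme without inhibitor for no effect and buffer without enzyme for full effect; nearly all actives have a fitted effect of over 40% in size; top concentration of the series not given in the record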
Target sequence (P25779 123-467 limits assumed): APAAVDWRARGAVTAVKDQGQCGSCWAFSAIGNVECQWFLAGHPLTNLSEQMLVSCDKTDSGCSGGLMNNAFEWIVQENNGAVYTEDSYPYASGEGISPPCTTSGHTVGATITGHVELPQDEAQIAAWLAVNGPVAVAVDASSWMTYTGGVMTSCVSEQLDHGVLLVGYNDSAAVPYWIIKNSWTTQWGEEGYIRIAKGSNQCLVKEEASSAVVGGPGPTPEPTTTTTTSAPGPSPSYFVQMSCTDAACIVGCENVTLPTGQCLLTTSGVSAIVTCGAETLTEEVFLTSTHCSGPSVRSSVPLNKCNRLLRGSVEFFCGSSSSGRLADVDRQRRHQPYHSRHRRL
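Detergent-free condition (0.00005% Triton X-100) in acetate buffer pH 5.5 with DTT. 1.5 nM enzyme and compound were pre-mixed 15 min, then 2 uM Z-FR-AMC substrate added; reaction progress from fluorescence change between first and third reads (60 s).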
2A StopGo: High Throughput Screening for Foot and Mouth Disease Virus Antivirals; 1.2% of 410,000 active; human cells with a luciferase reporter of 2A StopGo recoding; control for the full effect not named in the record; AID 1159524, 2015; Potency, µM (titrated, usually from 57.9 µM), without a hit: at the top dose signal change, negative = less light; active = well fitted falling curve with a large enough effect; inconclusive = small, poorly fitted or top-dose-only effect; inactive = no such curve, though single readings can be large or run the other way; tested in HEK293T cells; also: % is scaled to controls: 0 for no effect and ±100 for the full control effect; nearly all actives have a fitted effect of over 45% in size; luciferase light after 4 h
Cruzain inh Det: qHTS Assay for Promiscuous and Specific Inhibitors of Cruzain (with detergent); purified cruzain, Z-FR-AMC fluorescence, 0.01% Triton; 0.43% of 200,000 active; Cruzipain (Trypanosoma cruzi), P25779; Potency, µM, for inactives: max response, negative = inhibition, hits mostly inhibitors;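 also: plate controls were neutral wells for no effect and buffer without enzyme for full effect; nearly all actives have a fitted effect of over 40% in size; top concentration of the series not given in the record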
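Cysteine protease activity tested under reducing, mildly acidic conditions (100 mM sodium acetate pH 5.5, 5 mM DTT) plus 0.01% Triton X-100. Cruzain 1.5 nM; substrate Z-FR-AMC 2 uM; 15 min compound preincubation at room temperature.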
* marks the source's active call; other numbers are inactive results; ? = inconclusive; nt = not tested or not shown; & = joins results of further samples; [ ] = dose if it differs, or a comment. Unless noted, calls follow the shape of the dose curve; as a rule, active = well fitted curve in the direction sought with a large enough effect; inconclusive = small, poorly fitted or top-dose-only effect, or another doubt; inactive = no such curve, though single readings can be large; an effect the other way counts as inactive or inconclusive. Potency is read from the fitted curve at half-maximal effect.

SMILES | Marburg entry inh | NS1 inh | SARS PLpro yeast | LASV entry inh | RE007 growth inh | Cruzain inh noDet | 2A StopGo | Cruzain inh Det
CCOc1cc(C(=O)N2CCN(c3ccccc3)CC2)cc(OCC)c1OCC | -10% | -23% | 1% | -18% | -17% | ? | -15% | -1.4%
CCOC(=O)c1ccc(NC(=O)NCc2ccccc2OC)cc1 | -17%[46.1 µM] | -9% | 8% | nt | 3% | nt | 11% | nt
Cc1noc(NS(=O)(=O)c2ccc(NC(=O)/C=C/c3ccccc3)cc2)c1C | 2% | nt | nt | 32% | -2% | nt | 11% | nt
CCOc1ccc(-c2nc(CSc3nnc(C)s3)cs2)cc1OC | 0%[46.1 µM] | -66% | -12% | -11% | -7% | 28% | -13% | -2.7%
Cc1cccc(/C(N)=N/OC(=O)CCCc2ccccc2)c1 | 21%[46.1 µM] | -18% | 0% | -16%[46.1 µM] | -2% | nt | 15% | nt
CSc1cccc(NC(=O)C2CCN(S(=O)(=O)c3ccc4[nH]c(=O)ccc4c3)CC2)c1 | nt | nt | nt | -4%[46.1 µM] | nt | -1% | -9% | -0.3%
O=C(CCCNS(=O)(=O)c1ccc(F)cc1)Nc1ccc(F)cc1 | -5%[46.1 µM] | -32% | 0% | -1%[46.1 µM] | 2% | nt | 5% | nt
Cc1ncc(CO)c2c1Oc1nc(-c3ccccc3Cl)nc(SCc3ccccc3F)c1C2 | nt | nt | nt | 3%[46.1 µM] | nt | 27% | ? | -2.8%
Nc1nnc(-c2ccccc2[N+](=O)[O-])o1 | 1% | nt | 4% | nt | 5% | nt | 2% | nt
COc1cc(OC)c(NC(=O)c2cc(C)nc3c2c(C)nn3-c2ccc(C)cc2)cc1Cl | nt | nt | nt | ? | nt | -4% | 0% | 0.4%
Nc1c(S(=O)(=O)c2cccs2)c2nc3ccccc3nc2n1CC1CCCO1 (stereo not given) | -1% | -42% | 3% | 6% | 16% | -28% | 75%[activator] | -14%
NC(=O)Nc1ccccc1C(=O)Nc1ccc2ccccc2c1 | nt | 21% | -3% | nt | 16% | nt | 18% | nt
CCc1c(C)sc2c1CCN(C(=O)Nc1ccccc1Cl)C2c1ccc(OC)cc1 (stereo not given) | nt | nt | nt | -27%[46.1 µM] | nt | ? | -17% | -2.1%
COc1ccc2c(c1)C(=O)c1ccccc1CO2 | ? | 6% | -16% | -5% | -20% | -19% | 96%[activator] | 0.7%
Cc1ccc(OCc2nnc(NC(=O)c3ccco3)s2)cc1 | 9% | -34% | -6% | 9% | -8% | -11% | -4% | -1.0%
Cc1cccn2c(=O)c3cc(C(=O)NC4CCCCC4C)n(C)c3nc12 (stereo not given) | 14%[46.1 µM] | -11% | 0% | -10%[46.1 µM] | -7% | nt | -13% | nt
C=CCn1c(CCC)nc2ccccc21 | 8% | 1% | -1% | -12% | -18% | nt | 7% | nt
C#CCN1CCN(c2cccc(C(F)(F)F)c2)CC1 | ? | nt | 0% | -2% | 12% | nt | 2% | nt
COC(=O)c1c(NC(=O)C2COc3ccccc3O2)sc2c1CCN(C(C)=O)C2 (stereo not given) | -5% | 19% | -4% | ? | 15% | ? | 35µM* | -8.8%
COc1cccc(C(=O)Nc2c3c(nn2-c2ccc(C)cc2C)CS(=O)(=O)C3)c1OC | nt | nt | nt | -20%[46.1 µM] | nt | -1% | -3% | -0.6%
N=c1c2c3c(sc2ncn1CCN1CCOCC1)CCCCC3 | -4% | -4% | 2% | 1% | -6% | -3% | 7% | -1.3%
CC(C)OC(=O)CSc1nnc(Cc2ccccc2)n1C | 2% | -7% | 3% | 26% | 4% | 1% | 25% | 8.9%
COc1ccc(CCNC(=O)c2cc(Nc3ccccc3)nc3ccccc23)cc1OC | nt | nt | nt | ? | nt | 3% | -15% | 2.8%
COc1ccc(OC)c(NC(=O)CN(Cc2ccc(F)cc2)C2CCCCC2)c1 | ? | -10% | -5% | ? | 26% | nt | ? | nt
CCCc1ccc(S(=O)(=O)N2CCN(Cc3ccco3)CC2)cc1 | 9% | -26% | 17% | ? | -9% | nt | -18% | nt
COc1ccc(OCCn2c(C)c(/C=N/n3cnnc3)c3ccccc32)cc1 | -11% | 7% | -3% | -28% | 32% | ? | ? | -2.3%
CCOc1ncccc1C(=O)OCC(=O)Nc1c(C)cc(C)cc1C | 2% | -4% | -4% | 5% | 6% | 4% | -1% | 1.1%
Cc1cc(NC(=O)CSc2nc3c(C)cccc3cc2C)no1 | ? | 4% | -2% | -2% | 32% | nt | -20% | nt
CC1CCCC(NC(=O)CN(C)S(=O)(=O)c2cccc3cccnc23)C1C (stereo not given) | nt | -18% | -8% | nt | 0% | 5% | -27% | -4.5%
CC(=O)N1CCN(c2csc3ccc(F)cc3c2=O)CC1 | nt | nt | nt | 17%[46.1 µM] | nt | -9% | 30% | -2.8%
Cc1cccc(-n2c(O)c(C=NCCN3CCCCC3)c(=O)[nH]c2=O)c1 | -13%[46.1 µM] | 2% | 0% | -8% | 2% | nt | -3% | nt
CCCCn1c(NCc2ccc(N(C)C)cc2)nc2ccccc21 | ? | -7% | -2% | 27%[46.1 µM] | -10% | 7% | -23%&-18% | -2.1%
COc1ccc(S(=O)(=O)N2CCC(C(=O)NCCC(=O)NCc3cccc(OC)c3)CC2)cc1 | nt | -18% | 0% | nt | -4% | nt | -14% | nt
CCOC(=O)c1ccc(NC(=O)c2ccc3c(c2)C(=O)N(Cc2cccnc2)C3=O)cc1 | nt | 0% | 3% | nt | 8% | nt | 18µM* | nt
CCN(CC)C(=O)CCCc1c[nH]c2ccccc12 | 4%[46.1 µM] | -7% | -1% | -2% | 0% | nt | 35%[activator] | nt
Cc1ccc(N2CC(C(=O)NCc3cccs3)CC2=O)cc1 (stereo not given) | -6% | -2% | -4% | 9% | 10% | -7% | 45%[activator] | 4.2%
Cc1nn(C)c(C(=O)NNC(=S)NCc2ccccc2)c1Cl | nt | 1% | 0% | nt | 20% | nt | 17% | nt
Cn1c(=O)c2c(nc(OCc3ccc4c(c3)OCO4)n2Cc2ccccc2Cl)n(C)c1=O | ? | -24% | 0% | 10% | 7% | -2% | -3% | -0.8%
CCOC(=O)c1cnc2ccc(C)cc2c1N(C)Cc1ccccc1 | ? | -12% | -4% | ? | 6% | nt | -26% | nt
O=C(C1CCC(=O)N(C2CCCC2)C1)N1CCC(Oc2cccc(F)c2)CC1 (stereo not given) | ? | 3% | 1% | 0%[46.1 µM] | 3% | nt | -9% | nt
OCC(CO)(CO)N=Cc1cc(Br)ccc1O | 0% | -2% | 22% | 8% | 5% | -10% | 7% | 3.5%
CCn1c(SCC(=O)n2nc(C)cc2C)nnc1-c1ccc2c(c1)OCO2 | ? | -18% | 6% | 4% | 17% | -9% | -6% | 4.1%
COc1ccc(-n2nc3cc(C)c(NC(=S)NC(=O)c4ccccc4C)cc3n2)cc1 | ? | 4% | -2% | -5% | 17% | 13µM* | 20% | -2.7%
Oc1oc(-c2ccccc2)nc1/C=N/c1ccccn1 | ? | 2% | 0% | 20% | 7% | nt | 37%[activator] | nt
COc1ncccc1C(=O)N1CCCC(C(=O)c2cccc(OC(C)C)c2)C1 (stereo not given) | -8% | 1% | -1% | ? | 14% | nt | -17% | nt
Cc1ccc(S(=O)(=O)N2CCN(c3ccc(S(=O)(=O)N4CCOCC4)cn3)CC2)cc1 | ? | -1% | 0% | -14% | 10% | 19% | -19% | 6.0%
COCCCn1c(=N)c(C(N)=S)cc2c(=O)n3cccc(C)c3nc21 | ? | nt | nt | -1% | 1% | nt | -13% | nt
COc1ccc(C(=O)Nc2ccc(NC(=O)c3ccccc3F)cn2)cc1 | 4%[46.1 µM] | 3% | -6% | 6% | 12% | nt | 0% | nt
CC(C)n1cc(CN2CCCC(CO)(Cc3cccc(Cl)c3)C2)cn1 (stereo not given) | 0%[46.1 µM] | 0% | 0% | 1% | -2% | nt | 10% | nt
Cc1nn(CC(=O)N2CCN(c3ccccc3)CC2)c(C)c1[N+](=O)[O-] | 14%[46.1 µM] | 2% | -1% | -25%[46.1 µM] | 10% | nt | -2% | nt
COc1ccc(-c2csc(-n3ncc(C(=O)O)c3C(F)(F)F)n2)cc1 | nt | 0% | -1% | nt | 5% | nt | 60%[activator] | nt
Cc1ccc(S(=O)(=O)CC(=O)c2cc3cccc(C)c3oc2=O)cc1 | nt | 4% | -1% | nt | -4% | nt | -2% | nt
CCC1COCCS(=O)(=O)N1Cc1cccc(Cl)c1 (stereo not given) | nt | -14% | -8% | nt | -9% | nt | -18% | nt
O=C(CSCc1c(Cl)cccc1Cl)Nc1ccccc1C(=O)N1CCOCC1 | -17% | -2% | -1% | -6% | -16% | -1% | -17% | 3.2%
COc1ccccc1NC(=O)N1CCn2c(nc3ccccc32)C1 | 11% | -12% | -2% | -1% | 11% | -25% | 6% | -3.6%
Cc1ccc(NC(=S)NCc2ccc3c(c2)OCO3)cc1 | 10% | -5% | ? | ? | -1% | 0% | 77%[activator] | -0.5%
COc1cc2c(cc1OC)CN(C(=O)C1CCC(=O)N(CCCN3CCOCC3)C1)CC2 (stereo not given) | 0%[46.1 µM] | 0% | -4% | 11%[46.1 µM] | 12% | nt | -3% | nt
Cc1ccc(NC(=O)c2cccc(C(=O)Nc3ccc(C)c(C)c3)n2)cc1C | 0% | 22% | 0% | 0% | 2% | nt | -9% | nt
COc1ccc(CNC(=O)CN2C(=O)CSc3ccc(S(=O)(=O)N(C)C)cc32)cc1 | nt | nt | nt | ? | nt | -21% | -4% | 0.9%
C=CCc1ccc(OCCOCCOc2cccc3cccnc23)c(OC)c1 | -16% | -61% | 7% | -1% | -2% | 2% | -12% | ?
CCOc1ccc2nc3sc(C(=O)N4CCOCC4)c(N)c3cc2c1 | ? | 1% | 1% | ? | 7% | nt | -56% | nt

Screening results as filed in PubChem.

Rows are unselected; overall some 4.7% were active at least once.
